Compound activity (PubChem BioAssay)
MT1-MMP promoter – MT1-MMP gene expression reporter suppression – cell-based, luciferase reporter, luminescence (AID 618); calls from a first round at 10 µM; hits with a dose series show EC50 in µM; MT1-MMP promoter luciferase reporter cells, luminescence; 87,000 compounds, 0.62% hits;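 active = over half of the reporter light lost at 10 µM or EC50 under 50 µM; inactive = the rest and hits that failed the dose series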;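 also: actives suppress MT1-MMP promoter-driven transcription so potencies describe inhibitors; HT1080 fibrosarcoma cells; overnight exposure; toxic or luciferase-blocking compounds were not removed from the actives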
WNV protease inh – inhibitors of West Nile virus NS2B-NS3 protease. z-score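 (tested at a level between 10 and 100 µM)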. 65,000 compounds, 0.18% hits. WNV NS2B-NS3 protease, fluorogenic substrate Ex360/Em465; hits give low values;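 active = z-score at -3 or under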;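 also: score is relative to mean and spread of the compound wells of a plate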
Target sequence (P06935 1371-1501 limits assumed): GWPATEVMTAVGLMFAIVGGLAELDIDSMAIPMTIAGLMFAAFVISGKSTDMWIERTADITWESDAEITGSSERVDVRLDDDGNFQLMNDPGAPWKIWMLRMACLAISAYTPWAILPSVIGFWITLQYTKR
Target sequence (P06935 1502-1679 limits assumed): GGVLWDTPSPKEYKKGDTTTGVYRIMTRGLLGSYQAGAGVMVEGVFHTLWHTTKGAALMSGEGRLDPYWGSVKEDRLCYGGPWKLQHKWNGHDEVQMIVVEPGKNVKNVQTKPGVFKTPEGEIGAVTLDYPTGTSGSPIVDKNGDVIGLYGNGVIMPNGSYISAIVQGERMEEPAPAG
Hsc70 – small molecules displacing fluorescent ligand from Hsc70 – biochemical, fluorescence polarization, primary screen (AID 568); Hsc70 fluorescence polarization, probe displacement; higher % means a stronger effect; strong numbers were not always called active; one-dose displacement, % at 20 µM; IC50 in µM for titrated hits; 83,000 tested, under 10 active;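 active = displacement above 50% without optical interference and an IC50 on retest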;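 also: ATPase domain with a fluorescein-tagged ATP probe; 0% = vehicle and 100% = excess ADP; read after one hour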
* hit, by the source's call; i = inactive; x = not tested or not shown. Only part of the results is shown, so the mix of outcomes need not match the whole.

The line under a structure holds: MT1-MMP promoter, WNV protease inh, Hsc70
1: O=C(Nc1ccccc1C(=O)N1CCOCC1)C1CC(=O)N(C2CCCC2)C1 (stereo not given)
→ i, -1.38, -2.4%
2: COCCOC(=O)C1=C(C)N=c2s/c(=C\c3cccs3)c(=O)n2C1c1cccs1 (stereo not given)
→ i, 1.3, -5.8%
3: CCOc1cccc(-c2nnc(SCC(=O)Nc3ccc(OC)c(OC)c3)n2N)c1
→ i, -1.03, -3.1%
4: Cc1cc(/N=C/N(C)C)on1
→ i, 0.64, -1.3%
5: CCc1ccc(NC(=O)N(CCN2CCOCC2)C2CCN(C(C)=O)CC2)cc1
→ i, -1.3, -5.6%
6: CNC(=O)c1cc2cc(OC)ccc2n1CCN(Cc1ccccc1)Cc1ccccc1
→ i, x, 3.5%
7: Cc1c(C(=O)N2CCN(c3ccccn3)CC2)sc2ncnc(N3CCOCC3)c12
→ i, x, -6.9%
8: Brc1ccc(-c2nc(N/N=C/c3cccnc3)c3ccccc3n2)cc1
→ i, x, 2.2%
9: O=C(CSc1nnc(CNc2ccc(F)cc2)n1Cc1ccccc1)NCc1ccco1
→ i, -0.77, -2.8%
10: CCc1nnc(NC(=O)CSc2ncc(-c3ccccc3)n2C)s1
→ i, -0.33, -2.5%
11: O=C(Cn1c(CC(=O)N2CCCC2)nc2ccccc21)NCc1ccccc1
→ i, 0.33, -5.1%
12: O=C(O)CCn1nnc(-c2cccs2)n1
→ i, 0.83, 0.2%
13: c1ccc(-c2cc(-c3nc(-c4ccccn4)no3)c3ccccc3n2)cc1
→ i, -0.6, 3.1%
14: CC(=Nc1ccccc1)C1=C(O)COC1=O
→ i, x, -3.1%
15: Cc1cc2c(cc1C)CSC(c1ccc(O)cc1)SC2
→ i, x, 4.6%
16: CN1CCN(C(c2cccnc2)c2ccc3cccnc3c2O)CC1 (stereo not given)
→ i, 2.04, 2.9%
17: CCOc1cc(C2CC(=O)NC(SCC)=C2C#N)ccc1O (stereo not given)
→ i, -0.94, 0.9%
18: Cc1ccn2cc(-c3cnoc3C)nc2c1
→ i, x, 1.6%
19: CN(C)S(=O)(=O)N(CC(=O)Nc1ccccc1)c1ccccc1
→ i, x, -1.2%
20: CCC(NC(=O)NCc1ccc2c(c1)OCO2)(C(F)(F)F)C(F)(F)F
→ i, 0.15, -1.5%
21: CC(NS(C)(=O)=O)C(c1cccs1)N1CCN(C)CC1 (stereo not given)
→ i, 0.03, -9.9%
22: Cn1c(=O)c2c(nc(CN3CCCCC3)n2CCc2ccccc2)n(C)c1=O
→ i, 0.48, 0.9%
23: CCOC(=O)C1=c2s/c(=C\c3cccnc3)c(=O)n2C(N)=C(C(=O)OC)C1c1cccnc1 (stereo not given)
→ i, x, -1.5%
24: CCOc1ccc(C2C(C(=O)O)c3ccccc3C(=O)N2CCN2CCOCC2)cc1 (stereo not given)
→ i, 0.47, 0.2%
25: CC(=O)NC(Cc1ccc(F)cc1)C(=O)NC1CCN(c2nnnn2-c2ccccc2)CC1 (stereo not given)
→ i, 0.09, 7.5%
26: COc1ccc(-n2nnnc2SCC(=O)c2ccc3c(c2)OCCO3)c(OC)c1
→ i, -0.66, 2.1%
27: CCN(CC)c1ccc(NC(=O)c2cncc(Br)c2)cc1
→ i, 0.59, 1.6%
28: O=C(O)c1cc(-c2ccc(Cl)cc2)n[nH]1
→ i, -0.27, 1.2%
29: CN(C)CCNC(=O)C1CC(=O)N(c2ccc(F)c(Cl)c2)C1 (stereo not given)
→ i, x, 4.9%
30: CC(C)(C)CC(=O)Nc1nnc(C(F)(F)F)s1
→ i, x, -3.2%
31: O=C(OCCCc1ccncc1)c1ccc(S(=O)(=O)N2CCOCC2)cc1
→ i, 1.75, 2.3%
32: CCOC(=O)C1=C(N)OC2=C(C(=O)CCC2)C1c1cccs1 (stereo not given)
→ i, -1.32, -0.9%
33: CCCOC(=O)CSc1nc(N)c(C#N)c(CC)c1C#N
→ i, -0.39, 0.1%
34: COC(=O)C1=C(C(=O)OC)C2(OC1c1ccc(Br)cc1)C(=O)c1ccccc1C2=O (stereo not given)
→ i, x, -2.3%
35: COc1ccc(OCc2nn3c(-c4ccccn4)nnc3s2)cc1
→ i, -0.24, -12.9%
36: CCCc1cc(=O)[nH]c(SCc2ccccc2)n1
→ i, 0.26, -7.5%
37: COc1ccc(Cc2n[nH]c(=O)c3ccccc23)cc1OC
→ i, -0.6, -4.0%
38: CCC(=O)Nc1ccc(Cl)c(NC(=O)c2cccnc2)c1
→ i, -0.35, -0.1%
39: O=C(Nc1ccc(CN2CCOCC2)cc1)c1ccc(-c2ccc(Br)cc2)o1
→ i, 0.08, -0.9%
40: CCOC(=O)c1c(C)oc2c1cc(O)c1ccccc12
→ i, -0.19, -2.3%
41: COCCCNC(=O)C1CC(=O)N(Cc2ccc(OC)cc2)C1 (stereo not given)
→ i, -0.05, 2.0%
42: CCCCOCP(=O)(CC)COCCCC
→ i, x, 2.3%
43: Cc1cnc(C(=O)OCC(=O)NC2CCCCC2)cn1
→ i, -0.01, 4.1%
44: CCN(C(=O)C1CCCCC1)c1nnc(-c2cccnc2)s1
→ i, -1.11, 1.0%
45: CC(=O)NC(C)C(=O)OCC(=O)c1ccc(Cl)s1 (stereo not given)
→ i, -0.03, -8.5%
46: Cn1c(C(=O)N2CCCc3ccccc32)cc2sccc21
→ i, -0.31, -6.3%
47: Nc1nc2ccc(Oc3ccccc3)cc2s1
→ i, 1.76, 1.6%
48: CCn1c(SCC(=O)Nc2nnc(C)s2)nnc1-c1ccco1
→ i, 0.31, 2.2%
49: COc1c(S(=O)(=O)NCCN2CCOCC2)ccc(Cl)c1Cl
→ i, x, 4.5%
50: O=CNCCCc1nc2ccccc2n1Cc1cccc2ccccc12
→ i, x, -0.5%

Compounds 1 to 3, reprinted for reference:
The line under a structure holds: MT1-MMP promoter, WNV protease inh, Hsc70
1: O=C(Nc1ccccc1C(=O)N1CCOCC1)C1CC(=O)N(C2CCCC2)C1 (stereo not given)
→ i, -1.38, -2.4%
2: COCCOC(=O)C1=C(C)N=c2s/c(=C\c3cccs3)c(=O)n2C1c1cccs1 (stereo not given)
→ i, 1.3, -5.8%
3: CCOc1cccc(-c2nnc(SCC(=O)Nc3ccc(OC)c(OC)c3)n2N)c1
→ i, -1.03, -3.1%

New compounds follow:
The line under a structure holds: MT1-MMP promoter, WNV protease inh, Hsc70
51: c1ccc(-c2nc(C3CCCCC3)no2)cc1
→ i, -0.21, -1.2%
52: C=CCOC(=O)C1C(=O)CC(C)(O)C(C(=O)OCC=C)C1c1ccc(OCC)cc1 (stereo not given)
→ i, -0.66, 0.8%
53: Cc1oc2c(c1C(=O)NCc1cc(C(=O)O)co1)CCCC2
→ i, -0.31, -1.1%
54: CCOC(=O)c1sc(-c2ccc(OC)cc2)cc1N
→ i, -0.84, -3.2%
55: CC(=O)N1CCc2cc(S(=O)(=O)NCCC(=O)NC3CCN(Cc4ccccc4)CC3)ccc21
→ i, -0.08, 2.8%
56: COc1ccc(CNC(=O)c2ccc(CN3CCOCC3)cc2)cc1
→ i, 1.03, 5.2%
57: Cc1ccc(S(=O)(=O)N2CCN(C(=O)CSc3nc4ccccc4c(=O)[nH]3)CC2)cc1
→ i, 1.27, -4.4%
58: CC1(C)C2CC=C(/C=N/n3cnnc3)C1C2 (stereo not given)
→ i, -0.69, -0.3%
59: O=S(=O)(c1ccc(-c2ccccc2)cc1)N1CCOCC1
→ i, 0.41, -8.5%
60: CC(C)CC(=O)N1CCN(Cc2ccc3c(c2)OCO3)CC1
→ i, x, -2.5%
61: CN(C)CCN1C(=O)C(=O)/C(=C(/O)c2ccccc2)C1c1ccccc1F (stereo not given)
→ i, -0.81, -0.6%
62: CCOc1ccc(-c2cc(CCCC(=O)NCCc3ccccc3)no2)cc1
→ i, x, -3.8%
63: CCOc1c(Cl)cc(CNC(C)(C)CC(C)(C)C)cc1OC
→ i, x, 3.2%
64: O=c1c2ccccc2nc(SCc2nnc(-c3ccccc3Br)o2)n1-c1ccccc1
→ i, 0.39, 0.7%
65: O=C(Cc1ccccc1)N[C@@H](Cc1ccccc1)c1nc2ccccc2[nH]1
→ i, x, 4.5%
66: CCOC(=O)C1CCCN(Cc2ccccc2C)C1 (stereo not given)
→ i, -0.54, 10.2%
67: O=C(CN(C1CCCCC1)S(=O)(=O)c1ccccc1)NCc1cccnc1
→ i, -0.52, -3.1%
68: CCNc1nc(C)c2cc(Br)c(=O)n(CC)c2n1
→ i, 1.33, 0.5%
69: CCOC(=O)C1CCN(C(=O)Cn2cc(C#N)c3ccccc32)CC1
→ i, -1.04, -3.8%
70: N#Cc1nc(COc2ccc(Br)cc2)oc1N1CCCC1
→ i, 0.19, -2.1%
71: Cc1ccc(N(CC(=O)NCCc2ccccc2)S(=O)(=O)c2c(C)noc2C)cc1
→ i, x, 11.0%
72: O=c1c2ccccc2nnn1CSc1nnnn1-c1ccccc1
→ i, x, -6.1%
73: Cc1sc2nc(SCC(=O)Nc3c(C)n(C)n(-c4ccccc4)c3=O)n(C)c(=O)c2c1C
→ i, -0.53, -2.7%
74: COc1nc(-c2ccccc2)c2c(c1C#N)CC(C)(C)OC2
→ i, x, -3.7%
75: CCCC(=O)NC(C)C(c1cccs1)N1CCN(c2ccccc2)CC1 (stereo not given)
→ i, 1.37, -0.3%
76: CCc1ccc(C(=O)N2CCC(c3nc4ccccc4s3)CC2)cc1
→ i, x, 2.3%
77: Cc1ccc(SCCC(=O)N2CCCC2)cc1
→ i, -0.67, 4.2%
78: Cc1nc(NC(=O)CN(C)S(=O)(=O)c2ccc(Cl)cc2)sc1C
→ i, x, 1.4%
79: COc1ccccc1C(=O)N1CCN=C1SCc1cccnc1
→ i, -0.05, -5.3%
80: CCCS(=O)(=O)N1CCCC(C(=O)NCCCN2CCN(c3ccc(F)cc3)CC2)C1 (stereo not given)
→ i, 1.18, -12.9%
81: O=C(Cc1csc(N2CCOCC2)n1)N/N=C/c1ccc(F)cc1
→ i, x, 5.2%
82: CCOC(=O)COc1ccc(S(=O)(=O)NCc2ccncc2)cc1
→ i, 1.5, 4.9%
83: Cc1cccc(NCN2C(=O)c3ccccc3C2=O)c1
→ i, x, -2.4%
84: N#Cc1c(NCCCO)nc(-c2ccccc2)c2c1CCCC2
→ i, -0.32, 3.8%
85: CC(=NCc1ccccc1)C1=C(O)COC1=O
→ i, -0.06, -0.9%
86: Cn1c(=O)c2c(SCC(=O)N3CCCc4ccccc43)nc(C3CC3)nc2n(C)c1=O
→ i, 0.2, 3.2%
87: CCCCN(CC)S(=O)(=O)c1ccccc1
→ i, x, 0.1%
88: c1ccc(Cn2ncc3c2ncn2nc(-c4ccncc4)nc32)cc1
→ i, 0.67, -2.2%
89: COc1ccc(-c2cc(C(=O)NCCc3ccccc3)no2)cc1OC
→ i, -1.02, -3.9%
90: Cc1nnc(NC(=O)CSc2nc3c(c(=O)n2CCc2ccccc2)SC(C)C3)s1 (stereo not given)
→ i, -0.94, 1.5%
91: CCOc1ccc(C(=O)Nc2c(C(N)=O)oc3ccccc23)cc1
→ i, -0.77, 1.8%
92: O=c1c2cc(N3CCOCC3)ccc2[nH]c(=S)n1CCN1CCCC1
→ i, 0.16, -6.2%
93: Cc1ccc(Cn2ccc(NC(=O)c3cc(-c4cccs4)on3)n2)cc1
→ i, 0.16, 4.2%
94: COc1ccc(NC(=O)C(=O)NCCN2CCN(C(=O)c3cccs3)CC2)cc1
→ i, x, 5.5%
95: CCCc1nc2ccc(NC(=O)c3ccco3)cc2c(=O)n1Cc1ccc(Cl)cc1
→ i, x, 3.6%
96: O=C1NC(c2ccccc2)=C(c2nc3ccccc3s2)C(c2ccc(F)cc2)N1 (stereo not given)
→ i, x, 3.6%
97: CC1CCCC(C(=O)OCc2ccccc2)N1 (stereo not given)
→ i, -0.59, -2.1%
98: COc1cccc(-n2c(C)nc3c(cnn3-c3ccc(Cl)cc3)c2=O)c1
→ i, 0.23, 2.8%
99: Cc1cc(=O)n2nc(N3CCCC(C(=O)NC(C)c4ccccc4)C3)sc2n1 (stereo not given)
→ i, x, 1.3%
100: CCN(CC)S(=O)(=O)c1ccc2oc(C(=O)N3CCCCCC3)c(C)c2c1
→ i, -0.68, -6.4%

Additional compounds follow:
The line under a structure holds: MT1-MMP promoter, WNV protease inh, Hsc70
101: COc1ccc(S(=O)(=O)N2CCCC2C(=O)Nc2nccs2)cc1 (stereo not given)
→ i, -0.1, 1.9%
102: CC(C)OCCCn1c(=N)c(C(N)=S)cc2c(=O)n3ccccc3nc21
→ i, -1.33, 10.4%
103: CCCC(c1nnnn1C(C)(C)CC)N(CCCO)Cc1cc2cc(C)cc(C)c2[nH]c1=O (stereo not given)
→ i, -0.41, -2.0%
104: COc1ccc(OC)c(C(C)NC(C)=O)c1 (stereo not given)
→ i, -0.52, -3.5%
105: CC(C)(C)C(=O)NC(C(N)=O)=C(Cl)Cl
→ i, 0.03, -2.6%
106: Cc1cc(=O)oc2c(N)c(O)ccc12
→ i, 0.64, 0.9%

Along the list, from the results shown:
Entries 103–106 in MT1-MMP promoter read i, i, i, i

Profiles, quoted from the list. Order of screens: MT1-MMP promoter | WNV protease inh | Hsc70
COc1ccc(OC)c(C(C)NC(C)=O)c1 (stereo not given) is listed as i | -0.52 | -3.5%
CCc1ccc(C(=O)N2CCC(c3nc4ccccc4s3)CC2)cc1 is listed as i | x | 2.3%
CN1CCN(C(c2cccnc2)c2ccc3cccnc3c2O)CC1 (stereo not given) is listed as i | 2.04 | 2.9%
CN(C)S(=O)(=O)N(CC(=O)Nc1ccccc1)c1ccccc1 is listed as i | x | -1.2%
